B2AR ag = human beta-2 adrenergic receptor agonism by FAP. P07550. Am2.2-beta2AR cells, FAP receptor internalization, flow cytometry; reference of the scale not given here. response, % (concentration not given with the values). hit rate 0.43% among 340,000. AID 504454;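 active = response above a set limit, near 3 SD of response in nonfluorescent compounds, cut at about 42% in these data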;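 note: stock transfer was 100 nL into about 11 µL; a reference agonist was the positive control; negative values mostly stem from fluorescent compounds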
Target sequence (P07550 whole entry, looked up): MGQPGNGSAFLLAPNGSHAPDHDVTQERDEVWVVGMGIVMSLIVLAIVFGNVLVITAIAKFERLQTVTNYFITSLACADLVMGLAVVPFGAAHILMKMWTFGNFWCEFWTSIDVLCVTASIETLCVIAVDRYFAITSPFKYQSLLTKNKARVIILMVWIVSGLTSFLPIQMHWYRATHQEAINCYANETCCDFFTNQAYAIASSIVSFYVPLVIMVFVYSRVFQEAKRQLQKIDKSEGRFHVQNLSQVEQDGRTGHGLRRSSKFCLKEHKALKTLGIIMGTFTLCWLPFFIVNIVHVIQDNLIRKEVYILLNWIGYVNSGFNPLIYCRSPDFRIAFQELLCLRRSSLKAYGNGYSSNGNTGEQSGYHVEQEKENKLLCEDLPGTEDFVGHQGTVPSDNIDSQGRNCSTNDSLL
Ecoli growth = inhibitors of Escherichia coli growth; OD600, 23 h; stronger effect = lower value; OD600 absorbance (test concentration not listed); hit rate 0.21% among 330,000; AID 1053175;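 active = OD600 absorbance below the run mean of sample wells minus 3.6 SD, in any replicate, cut at about 0.56 in these data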;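 note: stock transfer was 300 nL into about 60 µL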
LANA-H2B inh = blocks KSHV LANA binding to histone H2A/H2B; cell-free LANA-H2A/H2B peptide, fluorescence polarization; inhibition, % (test concentration not listed); hit rate 0.6% among 320,000; in the data active = inhibition mostly above about 10%, no sharp cut-off; inactive = mostly below about 6.7%;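 note: stock transfer was 7.5 nL into about 10 µL; 0% = median of vehicle wells and 100% = median of positive control wells; one replicate is shown; the record names a cut of 25% in any replicate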
Bfl-1 A1 inh = inhibitors of the anti-apoptotic protein A1, read as caspase activation. hit rate 0.066% among 330,000. caspase activation, % (test concentration not listed). AID 2462. MEF A1-2A-BIM cells, Caspase-Glo 3/7 luminescence, 3 h; percent of clofoctol response, vehicle zero;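 active = over half of replicate activation scores above 10%, or exactly half above 10 with the replicate mean above 10; inconclusive = replicate mean below 10 yet half the replicates above 10; inactive = over half of replicates below 10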;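 note: wells of about 30 µL received 50 nL stock; many hits fall short of the cut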
Vif TR-FRET = inhibitors of Vif binding to APOBEC3G peptide, primary screen, biochemical, TR-FRET, GST-Vif 1-94, biotin-A3G peptide, dose response retest (AID 1117319). inhibition, %; hits with a dose series show IC50 in µM. hit rate 0.57% among 260,000. TR-FRET GST-Vif / biotin-A3G peptide binding; higher % means a stronger effect; test concentration not given here; strong numbers were not always called active;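 active = above the screen mean plus three standard deviations and confirmed in dose response; inconclusive = results disagree or hit not tested in dose response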;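 note: Vif residues 1-94 fused to GST binding biotinylated APOBEC3G peptide 110-148; 0% = full assay without inhibitor and 100% = GST in place of GST-Vif; retest series ran down from 100 µM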
HNF4A DNA FP = change in binding of human HNF4 alpha to DNA | HNF4a-FITC DNA binding, fluorescence polarization, 1 h | activity change, % at 10 µM | hit rate 0.3% among 360,000; in the data active = activity change above about 30%, passing the limit was not always enough;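 note: controls were the assay level and a saturating level of protein; the project sought stronger binding though the title names inhibitors; some compounds called inactive have numbers as strong as hits; positive values seem to mean higher polarization but the record does not say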
UCH37 inh = human UCH37 deubiquitinating enzyme inhibition. Q9Y5K5. purified proteasome/UCH37, Ub-AMC cleavage fluorescence. inhibition, % (no concentration beside the values). hit rate 0.33% among 330,000;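 active = mean of two replicates above 20%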;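 note: 0% = compound-free wells with enzyme and 100% = wells lacking proteasome; stock transfer was 100 nL into about 20 µL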
Target sequence (Q9Y5K5 whole entry, looked up): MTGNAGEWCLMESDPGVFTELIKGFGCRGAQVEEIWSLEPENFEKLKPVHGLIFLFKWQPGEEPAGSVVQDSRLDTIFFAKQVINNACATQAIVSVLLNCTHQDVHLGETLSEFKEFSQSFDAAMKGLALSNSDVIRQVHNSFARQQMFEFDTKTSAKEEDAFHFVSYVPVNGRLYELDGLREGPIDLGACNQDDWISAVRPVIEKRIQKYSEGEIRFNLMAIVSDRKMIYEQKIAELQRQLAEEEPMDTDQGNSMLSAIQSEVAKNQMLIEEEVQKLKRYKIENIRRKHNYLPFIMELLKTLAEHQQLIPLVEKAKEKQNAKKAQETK
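assay system = human UCH37 enzyme supplied as purified proteasome complex | amount = proteasome at 0.15 nM in the dispensed enzyme solution | schedule = 30 min compound-proteasome preincubation then 25 min substrate reaction, room temperature | measured by = fluorescence, ex 355 nm, em 460 nm | benchmarks = no-proteasome wells (full inhibition) and compound-free wells (no inhibition)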
Active calls of the source: *.

`CCNc1ccc(Br)cc(C(=O)/C=C/c2ccc(Cl)cc2)c1=O` gave B2AR ag 11, Ecoli growth 0.65, LANA-H2B inh 0.1, Bfl-1 A1 inh 0.1, Vif TR-FRET 7.1µM*, HNF4A DNA FP -1.4 and UCH37 inh 3.1.
For CCCCc1cc(=O)oc2cc(OC(C)C(=O)NCc3ccccn3)c(Cl)cc12 (stereo not given) the results were B2AR ag -22, Ecoli growth 0.67, LANA-H2B inh 2.8, Bfl-1 A1 inh 0.8, Vif TR-FRET -18%, HNF4A DNA FP 1.4 and UCH37 inh -6.4.
For CCOC(=O)N1CCN(C(=O)CCNS(=O)(=O)c2ccc3c(c2)c(=O)n(C)c(=O)n3C)CC1 the results were B2AR ag 2, Ecoli growth 0.66, LANA-H2B inh -5.6, Bfl-1 A1 inh 0.2, Vif TR-FRET -8%, HNF4A DNA FP 0.7 and UCH37 inh 4.7.
For O=C(CCS(=O)(=O)Cc1ccccc1)Nc1nnc(C(F)(F)F)s1 the results were B2AR ag 2, Ecoli growth 0.65, LANA-H2B inh 2.1, Bfl-1 A1 inh 0.9, Vif TR-FRET 0%, HNF4A DNA FP 0.6 and UCH37 inh 2.0.
Screening CCc1c(C)c2ccc(OC3CCCCC3=O)cc2oc1=O (stereo not given) returned B2AR ag -14, Ecoli growth 0.66, LANA-H2B inh 1.0, Bfl-1 A1 inh -0.6, Vif TR-FRET 3%, HNF4A DNA FP 0.9 and UCH37 inh -173.
`CCn1c(SCC(=O)Nc2cccc(NC(C)=O)c2)nnc1C(C)C` gave B2AR ag -4, Ecoli growth 0.72, LANA-H2B inh -2.6, Bfl-1 A1 inh -2.1, Vif TR-FRET -5%, HNF4A DNA FP 2.2 and UCH37 inh 2.0.
CCOC(=O)CSc1nc(C)c(C(C)=O)cc1C(N)=O was read as B2AR ag 0, Ecoli growth 0.65, LANA-H2B inh 1.1, Bfl-1 A1 inh inconclusive, Vif TR-FRET -2%, HNF4A DNA FP 2.5 and UCH37 inh 4.6.
For CCCCOc1ccc(/C=N/NC(=O)c2csc(C)c2C)cc1 the results were B2AR ag -1, LANA-H2B inh 0.5, Bfl-1 A1 inh 0.3, Vif TR-FRET 15% and HNF4A DNA FP 0.1.
`Cc1cc(C)n(-c2nc3sc4c(c3c(=O)[nH]2)CCCC4)n1` gave Ecoli growth 0.69, LANA-H2B inh 3.5, Bfl-1 A1 inh -3.1, Vif TR-FRET 4% and UCH37 inh -1.9.
Screening Cc1cc(-c2ccccc2)n[nH]1 returned B2AR ag -1, Ecoli growth 0.7, LANA-H2B inh 1.5, Bfl-1 A1 inh -0.6, HNF4A DNA FP -0.8 and UCH37 inh 2.4.

At a glance, three of the compounds above.
CCOC(=O)CSc1nc(C)c(C(C)=O)cc1C(N)=O was read as B2AR ag 0, Ecoli growth 0.65, LANA-H2B inh 1.1, Bfl-1 A1 inh inconclusive, Vif TR-FRET -2%, HNF4A DNA FP 2.5 and UCH37 inh 4.6.
For CCCCOc1ccc(/C=N/NC(=O)c2csc(C)c2C)cc1 the results were B2AR ag -1, LANA-H2B inh 0.5, Bfl-1 A1 inh 0.3, Vif TR-FRET 15% and HNF4A DNA FP 0.1.
`Cc1cc(C)n(-c2nc3sc4c(c3c(=O)[nH]2)CCCC4)n1` gave Ecoli growth 0.69, LANA-H2B inh 3.5, Bfl-1 A1 inh -3.1, Vif TR-FRET 4% and UCH37 inh -1.9.

Next structures follow:
Screening CC1Cc2ccccc2N1C(=O)CN1CCc2ccccc2C1 (stereo not given) returned B2AR ag -6, Ecoli growth 0.7, LANA-H2B inh 3.9, Bfl-1 A1 inh 0.0, Vif TR-FRET -2%, HNF4A DNA FP -0.7 and UCH37 inh 1.4.
CCOC(=O)C1=C(C)N(C)C(=S)N(C)C1c1ccc(OC)cc1 (stereo not given) was read as B2AR ag -2, Ecoli growth 0.67, LANA-H2B inh -6.9, Bfl-1 A1 inh 1.5, Vif TR-FRET -5%, HNF4A DNA FP 3.4 and UCH37 inh -3.7.
CC12CCC(C(=O)Nc3ncc([N+](=O)[O-])s3)(OC1=O)C2(C)C (stereo not given) was read as B2AR ag -2, Ecoli growth 0.74, LANA-H2B inh -4.0, Bfl-1 A1 inh 0.0, Vif TR-FRET 1%, HNF4A DNA FP 1.5 and UCH37 inh 5.6.
Screening CCc1nnc(NC(=O)c2ccc(COc3ccc(C)cc3)o2)s1 returned B2AR ag 1, Ecoli growth 0.65, LANA-H2B inh 0.7, Bfl-1 A1 inh -0.5, Vif TR-FRET 26%, HNF4A DNA FP -3.8 and UCH37 inh 6.2.
CC1CCN(S(=O)(=O)c2ccc(C(=O)Nc3ncccc3O)cc2)CC1 was read as B2AR ag -4, Ecoli growth 0.7, LANA-H2B inh 0.8, Bfl-1 A1 inh 0.4, HNF4A DNA FP -1.1 and UCH37 inh 3.7.
`Clc1ncnc2[nH]ccc12` gave B2AR ag 17, Ecoli growth 0.64, Vif TR-FRET 3%, HNF4A DNA FP -0.3 and UCH37 inh -1.2.
Screening Cc1oc(-c2cccc(Cl)c2)nc1CS(=O)(=O)CC(=O)NC1CCCC1 returned B2AR ag 7, Ecoli growth 0.7, LANA-H2B inh 5.7, Bfl-1 A1 inh 0.1, HNF4A DNA FP 4.0 and UCH37 inh 3.0.
CN(c1ccccc1)c1ccc(/C=C/[N+](=O)[O-])cc1 was read as B2AR ag 88*, LANA-H2B inh -1.5, Bfl-1 A1 inh 3.6, Vif TR-FRET -1% and HNF4A DNA FP 1.8.
`Cc1csc(NC(=O)CSc2nsc(SCC(=O)Nc3nc(C)cs3)c2C#N)n1` gave B2AR ag 5, Ecoli growth 0.73, LANA-H2B inh -3.1, Bfl-1 A1 inh 0.3, Vif TR-FRET 16%, HNF4A DNA FP 0.5 and UCH37 inh 2.2.
CCOc1ccc(-c2cc(C(=O)OC)[nH]n2)cc1 was read as B2AR ag 12, Ecoli growth 0.68, LANA-H2B inh 0.7, Bfl-1 A1 inh -3.5, Vif TR-FRET 1%, HNF4A DNA FP -1.1 and UCH37 inh 2.6.
`CCNc1ccc(S(=O)(=O)N2CCCCC2)cn1` gave B2AR ag 0, Ecoli growth 0.7, LANA-H2B inh -1.9, Bfl-1 A1 inh 0.3, Vif TR-FRET 5%, HNF4A DNA FP -1.3 and UCH37 inh -1.2.
O=C(NCCCOc1cccc(CN2CCCCC2)c1)c1ccc(Cl)c(Cl)c1 was read as B2AR ag -1, LANA-H2B inh 1.7, Bfl-1 A1 inh -0.1, Vif TR-FRET -4%, HNF4A DNA FP -3.6 and UCH37 inh 0.9.
Screening OCC1(CCOc2ccccc2)CCN(Cc2cn[nH]c2-c2ccccc2)CC1 returned B2AR ag 7, Ecoli growth 0.68, LANA-H2B inh 1.9, Bfl-1 A1 inh -0.4, Vif TR-FRET 6%, HNF4A DNA FP 1.1 and UCH37 inh -1.1.
Screening COC(=O)c1c(-c2ccccc2)csc1NC(=O)C1CC=CCC1C(=O)O (stereo not given) returned B2AR ag -2, Ecoli growth 0.67, LANA-H2B inh -9.6, Bfl-1 A1 inh -1.1, Vif TR-FRET -7%, HNF4A DNA FP -0.6 and UCH37 inh 5.8.
Screening CCOCCCNC(=O)c1ccc(CS(=O)(=O)Cc2cccc(C)c2)o1 returned B2AR ag -5, Ecoli growth 0.65, LANA-H2B inh 1.0, Bfl-1 A1 inh 0.1, Vif TR-FRET 2%, HNF4A DNA FP 2.6 and UCH37 inh 0.7.
For Cc1ccc(NC(=O)CSc2nnc(-c3ccccn3)n2C)cc1 the results were B2AR ag 3, Ecoli growth 0.73, LANA-H2B inh -4.5, Bfl-1 A1 inh 0.3, Vif TR-FRET -4%, HNF4A DNA FP -1.7 and UCH37 inh 0.6.
Screening CCOC(=O)c1cc2c(C)n(-c3ccc(N(C)C)cc3)c(C)c2cc(C(=O)OCC)c1=O returned B2AR ag -4, Ecoli growth 0.73, LANA-H2B inh -0.4, Bfl-1 A1 inh -0.5, Vif TR-FRET 5%, HNF4A DNA FP -4.1 and UCH37 inh 2.6.
COc1cc(CNC(C)c2ccccc2)cc(Cl)c1OCC(=O)Nc1ccccc1 (stereo not given) was read as B2AR ag 3, Ecoli growth 0.61, LANA-H2B inh 1.9, Bfl-1 A1 inh -1.5, Vif TR-FRET -5%, HNF4A DNA FP -0.1 and UCH37 inh 7.5.
For COCCCNC(=O)c1ccc(C2SCC(=O)N2Cc2ccco2)cc1 (stereo not given) the results were B2AR ag -3, Ecoli growth 0.7, LANA-H2B inh -3.9, Bfl-1 A1 inh -0.4, Vif TR-FRET -4%, HNF4A DNA FP -0.1 and UCH37 inh 4.7.
O=C1CNC(=O)/C1=C/c1ccccc1 was read as B2AR ag 5, Ecoli growth 0.67, LANA-H2B inh -3.4, Bfl-1 A1 inh 0.7, Vif TR-FRET 9%, HNF4A DNA FP 1.6 and UCH37 inh 0.6.
For COc1cccc(NC(=O)COc2coc(CN3CCc4ccccc4C3)cc2=O)c1 the results were B2AR ag 5, Ecoli growth 0.71, LANA-H2B inh 0.7, Bfl-1 A1 inh -0.4, Vif TR-FRET 8%, HNF4A DNA FP -6.6 and UCH37 inh 0.2.
CC(Sc1nc2ccccc2c(=O)n1CC1CCCO1)C(=O)N(C)Cc1ccccc1 (stereo not given) was read as B2AR ag 2, Ecoli growth 0.7, LANA-H2B inh 1.5, Bfl-1 A1 inh 0.0, Vif TR-FRET 3%, HNF4A DNA FP 2.3 and UCH37 inh -1.4.
For COCc1c(Br)c(C)nc2sc3c(=O)[nH]nnc3c12 the results were B2AR ag 24, Ecoli growth 0.65, LANA-H2B inh -3.0, Bfl-1 A1 inh 0.5, Vif TR-FRET 6%, HNF4A DNA FP -2.1 and UCH37 inh 5.4.
For O=C(Nc1ccccc1)C1COc2ccccc2O1 (stereo not given) the results were B2AR ag 7, Ecoli growth 0.67, LANA-H2B inh -5.4, Bfl-1 A1 inh 0.2, HNF4A DNA FP 0.8 and UCH37 inh 3.8.
Screening Cc1cnc(NC(=O)Nc2ccc(Cl)cc2)s1 returned B2AR ag -4, Ecoli growth 0.62, LANA-H2B inh -0.8, Bfl-1 A1 inh -1.5, HNF4A DNA FP 3.5 and UCH37 inh 2.7.
For COc1ccccc1-c1ccc(=O)n(CC(=O)NCc2cccs2)n1 the results were B2AR ag 10, Ecoli growth 0.69, LANA-H2B inh -11, Bfl-1 A1 inh 0.4, Vif TR-FRET -3%, HNF4A DNA FP -1.9 and UCH37 inh 1.5.
O=C(Cn1nnc2ccccc21)c1ccc([N+](=O)[O-])cc1 was read as B2AR ag -3, Ecoli growth 0.67, LANA-H2B inh 1.4, Bfl-1 A1 inh 0.4, HNF4A DNA FP -5.6 and UCH37 inh 5.1.
For COc1cccc(C(=O)C2CCCN(CC3=Cc4cc(OC)ccc4OC3)C2)c1 (stereo not given) the results were B2AR ag -15, Ecoli growth 0.69, LANA-H2B inh -3.9, Bfl-1 A1 inh -0.8, HNF4A DNA FP 1.3 and UCH37 inh -0.1.
For O=C(NCc1ccccc1)C1CCCN(S(=O)(=O)c2cccc3nonc23)C1 (stereo not given) the results were B2AR ag 1, LANA-H2B inh -1.8, Bfl-1 A1 inh -0.3, Vif TR-FRET 33% and HNF4A DNA FP 21.
`O=C(Nc1ccc(S(=O)(=O)NCC2CCCO2)cc1)c1ccccc1` (stereo not given) gave B2AR ag 3, Ecoli growth 0.73, LANA-H2B inh -0.7, Bfl-1 A1 inh -0.7, Vif TR-FRET -7%, HNF4A DNA FP -0.6 and UCH37 inh 4.1.

Compounds as they come, and some 2.1% of all compounds hit somewhere here.
